ugtP null kill – growth inhibition of ugtP-null S. aureus, primary screen, RN4220 ugtP deletion, OD600 | 16 h; some inactives read as strong as hits | growth inhibition, % (no concentration beside the values) | 330,000 compounds, 0.54% hits;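 active = z-score under -3 and OD600 up to 0.15 on both plates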;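 also: plate controls were untreated wells for no effect and antibiotic for full effect; wells of about 80 µL received 100 nL stock; the first replicate is given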
PrP 5UTR inh – inhibition of PrP 5' UTR reporter expression; cell-based PrP 5' UTR mRNA reporter, plate reader; inhibition, % (test concentration not listed); 340,000 compounds, 0.35% hits; AID 488862, 2010;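 active = every replicate at 50% or more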;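 also: 0 = median of the neutral control wells; tested in H4 reporter cells; numbers are from one replicate; inactives centre near -14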
Sa RN4220 lethal – growth inhibition of S. aureus RN4220, primary screen, OD600 | inhibition, % (test concentration not listed) | 330,000 compounds, 0.33% hits | AID 1259311, 2017 | 16 h;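 active = z-score of -3 or lower and OD600 up to 0.18 on both plates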;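 also: plate controls were untreated cells for no effect and reference antibiotic for full effect; stock transfer was 100 nL into about 80 µL; one replicate is shown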
Mtb hypoxia inh – PubChem AID 1159583 | 300,000 compounds, 0.1% hits | M. tuberculosis hypoxia-regulated fluorescent reporter, fluorescence | fluorescence inhibition, % (no concentration beside the values);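 active = 35 to 45% if threefold the growth effect, above 45% if 1.5-fold the growth effect; inactive = the rest, general growth blockers included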;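 also: wells of about 50 µL received 100 nL stock; 0% = vehicle wells and 100% = reference inhibitor wells; whole bacteria with a GFP reporter of the hypoxia response; strong numbers were not always called active; many hits fall short of the cut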
BJeLR lethal – MLPCN primary cell-based screen for lethality selective to Ras in HRASV12 cells; 300,000 compounds, 0.17% hits; AID 1554, 2009; BJeLR (HRASV12) viability, CellTiter-Glo ATP luminescence, 48 h; reference of the scale not given here; inhibition, % (test concentration not listed);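 active = replicate mean above 50%; inconclusive = above 50% but judged a plate artefact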;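 also: 50 nL library stock added to about 25 µL; numbers are from one replicate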
Autofluor counter – counter-screen for toxin protease inhibitors: compound fluorescence; 360,000 compounds, 3.1% hits; fluorescence intensity (concentration not given with the values); compound autofluorescence counterscreen, microsphere flow cytometry; hits give high values;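 active = at least 3 SD above the mean of all compounds, about 16000 in these data; inconclusive = too few beads counted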;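 also: 100 nL of 1 mM stock went into each well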
Mtb hypoxia inh growth – also measured in Mtb hypoxia inh; calls as there; growth inhibition, %; measured here: M. tuberculosis growth (absorbance);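 0% = vehicle and 100% = reference antibiotic; read after six days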
* = called active by the depositor; ? = inconclusive; nt = no result given.

SMILES	ugtP null kill	PrP 5UTR inh	Sa RN4220 lethal	Mtb hypoxia inh	Mtb hypoxia inh growth	BJeLR lethal	Autofluor counter
CC(=O)Nc1ccccc1NC(=O)c1ccccc1	-1.2	3.6	0.0	3.6	-1.9	0.5	2215
COc1ccc(NC(=O)C2CCN(c3cnccn3)CC2)cc1OC	2.9	-14.7	-2.1	-4.6	1.1	-1.1	3655
CCC(COC)NCc1cn(-c2ccc(OC)cc2)nc1-c1cccc(F)c1 (configuration not stated)	0.8	-18.8	7.0	-3.0	-4.9	5.7	5643
Cc1ccccc1S(=O)(=O)Cc1ccc(C(=O)NCc2ccccc2)o1	7.7	-16.0	5.2	7.6	-0.8	3.5	4505
COc1ccc(C(=O)C2CCCN(Cc3c(F)ccc(F)c3F)C2)c(OC)c1 (configuration not stated)	3.5	-0.7	4.5	0.4	-6.0	0.4	3315
NS(=O)(=O)c1ccc(N2CCN(C(=O)c3ccco3)CC2)nc1	4.0	-20.0	5.4	1.4	8.1	nt	3488
COc1ccc(NC(=S)Nc2ccc(F)cc2)c(OC)c1	8.5	-17.2	-2.1	-1.2	0.8	-6.7	3414
Cc1[nH]c(C)c(S(=O)(=O)Nc2ccccc2)c1C(=O)N1CCCC1	1.6	-27.6	3.0	6.8	7.2	-0.7	5055
Cc1ccc(OC(=O)c2cc(=O)c3ccccc3o2)cc1	6.8	0.9	2.1	6.5	15.2	1.7	2031
O=C(CNC(=O)c1cccs1)NN=Cc1c(F)cccc1Cl	4.5	nt	15.2	6.3	-3.4	nt	nt
COc1ccc(CCNC(=O)/C=C/C(=O)O)cc1	-17.2	-4.8	-0.4	4.8	8.5	4.9	4127
CCS(=O)(=O)N1CCN(c2ccc(Cl)cc2[N+](=O)[O-])CC1	13.4	-2.2	2.9	15.4	13.5	20.6	2413
CCCCCn1c(SCc2cccc(C)c2)nc2c1c(=O)[nH]c(=O)n2C	1.7	-19.4	11.6	13.1	8.0	-7.8	6030
O=c1[nH]c(C2CCN(S(=O)(=O)c3ccc(S(=O)(=O)NC4CC4)cc3)CC2)nc2c1nnn2Cc1cccc(F)c1	8.7	-13.1	1.8	-11.1	9.6	-13.4	3792
COc1ccc(NC(=O)NCCCCc2ccccc2)c(OC)c1	3.5	-14.5	1.0	10.4	-4.9	7.0	5041
COc1cccc(NC(=O)CSCC(=O)O)c1	11.7	-4.2	4.8	3.2	5.3	-7.8	17067*
CCc1ccc(S(=O)(=O)Nc2c(C)nc3nc[nH]n3c2=O)cc1	10.3	9.2	2.2	6.7	-6.3	5.3	2939
Fc1ccc(NC(=S)Nc2cc(Cl)ccc2Cl)cc1	3.5	-15.5	4.4	2.6	4.9	0.3	3967
CCCCCCCC(=O)C(C)C(=O)N(C)[C@H](Cc1ccc(OC)cc1)C(=O)N(C)[C@H](C(N)=O)C(C)C (some centres not stated)	14.1	-23.9	9.6	0.0	1.5	nt	2940
CC(=O)Nc1ccc2[nH]ccc2c1	0.5	-6.8	-5.4	7.0	0.0	-3.1	3933
CCOc1ccc(CN2CCN(C(=O)c3cccc(F)c3)CC2)cc1	1.7	-11.1	1.9	17.7	7.0	8.3	7416
Cc1ccc(Cc2cnc(NC(=O)C3CCCO3)s2)cc1 (configuration not stated)	6.7	-112.2	-0.3	nt	nt	-0.3	2299
Cc1nc(-c2ccc(Cl)cc2)sc1C1(C)CC(c2ccc(Br)cc2)=NO1 (configuration not stated)	-2.3	-9.9	-1.9	8.4	14.2	-2.7	3700
COC(=O)c1ccccc1S(=O)(=O)C(C)(C)C	-1.9	-10.7	-0.6	5.6	1.3	-12.3	4125

An excerpt of the results above, for reference:
SMILES	ugtP null kill	PrP 5UTR inh	Sa RN4220 lethal	Mtb hypoxia inh	Mtb hypoxia inh growth	BJeLR lethal	Autofluor counter
CC(=O)Nc1ccc2[nH]ccc2c1	0.5	-6.8	-5.4	7.0	0.0	-3.1	3933
CCOc1ccc(CN2CCN(C(=O)c3cccc(F)c3)CC2)cc1	1.7	-11.1	1.9	17.7	7.0	8.3	7416
Cc1ccc(Cc2cnc(NC(=O)C3CCCO3)s2)cc1 (configuration not stated)	6.7	-112.2	-0.3	nt	nt	-0.3	2299
Cc1nc(-c2ccc(Cl)cc2)sc1C1(C)CC(c2ccc(Br)cc2)=NO1 (configuration not stated)	-2.3	-9.9	-1.9	8.4	14.2	-2.7	3700
COC(=O)c1ccccc1S(=O)(=O)C(C)(C)C	-1.9	-10.7	-0.6	5.6	1.3	-12.3	4125

(next part)
SMILES	ugtP null kill	PrP 5UTR inh	Sa RN4220 lethal	Mtb hypoxia inh	Mtb hypoxia inh growth	BJeLR lethal	Autofluor counter
COc1ccc(NC2CCCN(C(=O)CCc3cccc(F)c3)C2)cc1 (configuration not stated)	5.2	-11.1	1.1	-3.2	-2.6	12.1	5952
Cc1cccn2cc(CCNC(=O)c3ccc(Br)o3)nc12	4.0	-7.2	7.2	-4.0	1.2	10.3	4202
CC(C(=O)c1ccc(Cl)cc1Cl)n1cncn1 (configuration not stated)	-3.1	-16.3	3.0	10.4	-5.3	-0.5	4175
COc1ccccc1CCC(=O)OCC(=O)Nc1ccc(C)c(S(=O)(=O)N2CCCCC2)c1	5.4	-1.4	3.3	9.0	0.0	7.0	6359
CCNC(=S)NNC(=O)c1ccccc1Cl	19.4	-18.4	4.3	0.6	3.3	-5.3	2517
COc1ccc(NC(=O)c2cccnc2NCCc2ccccc2)cc1	83.6	-1.1	-2.3	14.0	7.1	0.3	2905
O=C(Cn1nc(-c2ccc(Cl)cc2)c2ccccc2c1=O)Nc1cccnc1	-15.7	0.9	-1.7	1.9	13.5	6.8	4511
COc1ccc(-c2cc3nc(CCl)[nH]c(=O)c3s2)cc1	nt	-95.8	nt	nt	nt	-2.1	6040
C=CCNC(=O)/C(=C\c1ccc(Br)cc1)NC(=O)c1ccccc1OC	10.8	-20.9	2.7	11.1	2.7	-8.1	2065
O=C(O)c1cc2c(cc1NC(=O)c1ccccc1OC(F)F)OCCCO2	4.6	-27.3	1.2	4.1	4.6	1.6	3606
CC12CCC(=O)C=C1CCCC2=O (configuration not stated)	3.5	-7.0	3.3	1.7	3.4	nt	2879
Cc1cc(/C=N/NC(N)=S)c(O)c(/C=N/NC(N)=S)c1	nt	-34.4	nt	nt	nt	14.8	5699
O=C(COc1ccc(Cl)cc1)NCCSc1ccccc1	-1.3	-28.9	-6.6	nt	nt	0.0	2382
COc1ccc(/C=C(\NC(=O)c2ccccc2)C(=O)NCC2CCCO2)cc1 (configuration not stated)	9.3	-6.0	7.8	7.2	-4.2	-2.6	3204
O=C(NN=Cc1ccc[nH]1)c1ccccc1OCc1ccc(F)cc1	0.5	nt	4.3	11.7	3.1	nt	nt
CCCn1c(-c2cccs2)nc2nc3ccccc3nc21	-18.3	-7.0	15.3	22.2	23.1	-5.8	8663
COC1(OC)N=C(N)C2(C#N)C(c3cccc(Oc4ccccc4)c3)C12C#N (configuration not stated)	18.7	1.9	17.7	-2.6	5.2	-4.5	3186
O=C(CN1CCCCCC1)Nc1ccccc1C(=O)Nc1ccccc1	3.3	-7.9	2.7	-5.0	3.9	4.2	6079
CCc1cccc(N(C(=O)c2csnn2)C(C(=O)NC(C)(C)CC)c2ccccn2)c1 (configuration not stated)	5.6	-19.1	4.8	14.9	3.0	1.6	3750
CCCCCn1c(=O)c(C(=O)NCc2ccccc2Cl)c(O)c2ccccc21	23.9	-4.1	0.5	12.0	-3.5	-3.0	4860
CCCCOC(=O)c1ccc(NC(=O)c2c(N)n(C)c(=O)[nH]c2=O)cc1	2.0	nt	4.0	9.3	2.2	2.8	nt
CCN(CC)C(=O)C(=O)N/N=C/c1ccc(C(=O)O)cc1	nt	-8.7	nt	nt	nt	-2.3	2140
COCCN1C(=O)C(=O)/C(=C(/O)c2ccc(S(=O)(=O)N3CCOCC3)cc2)C1c1cccc([N+](=O)[O-])c1 (configuration not stated)	4.6	-12.9	4.0	-5.4	-6.4	1.2	6296
CC1CN(C(C)CO)C(=O)c2cccc(NS(C)(=O)=O)c2OC1CN(C)CC1CCCCC1 (configuration not stated)	-12.3	nt	5.7	8.8	12.1	nt	nt
CC(=NNC(=O)c1cccc(S(=O)(=O)N2CCOCC2)c1)c1cc2ccccc2o1	2.5	nt	0.3	10.5	1.2	nt	nt
O=C(Nc1ccc(Cl)cc1)Nc1ccccc1C(=O)O	-4.9	-17.6	4.5	10.2	15.6	7.2	3621
CCCCn1c(N)c(N(CC)C(=O)c2ccc(N3CCCC3=O)cc2)c(=O)[nH]c1=O	1.9	-13.9	4.0	4.6	12.8	-3.5	5793
Cn1c(NC(=O)c2ccc3c(c2)OCO3)cc(=O)n(C)c1=O	4.8	-25.2	2.3	3.3	-1.1	17.6	4274
Cc1ccc2nc(Cl)c3cc(C(=O)NCCCN4CCCC4)sc3c2c1	7.0	-53.6	-1.4	4.5	10.1	19.9	4326
COc1ccc(N(C(=O)C(C)C)S(=O)(=O)c2ccc3c(c2)n(C)c(=O)n3C)cc1	-1.0	-16.4	-13.5	14.3	5.2	4.8	2869
CC1C(=O)N2CCCc3cc(S(=O)(=O)NCc4ccccc4Cl)cc1c32 (configuration not stated)	-2.2	-19.0	7.1	12.7	6.2	2.5	5818
CC(Oc1ccccc1)C(=O)Nc1nc2c(s1)C(=O)CC(C)(C)C2 (configuration not stated)	-2.0	-12.8	0.6	4.8	12.4	-2.8	2857
COc1ccc(-c2nn(C)c(=O)c3ccccc23)cc1CNC(=O)CN1CCOCC1	-9.4	nt	-0.5	nt	nt	-3.1	nt
CCCCNS(=O)(=O)c1ccc2nc(SCC(=O)Nc3sccc3C#N)[nH]c2c1	-4.5	-13.8	-0.3	nt	nt	0.4	3994
COc1ccc(S(=O)(=O)N2CCN(C)CC2c2ccccc2)cc1OC (configuration not stated)	3.2	-17.8	1.4	8.2	12.8	nt	5314
O=C(CN(c1ccccc1F)S(=O)(=O)c1ccccc1)NC1CCCCCC1	4.5	-8.8	5.0	2.4	8.6	-3.9	10895
COc1cccc(NC(=O)CN(C)C(=O)C2CCN(C(=O)c3ccccc3C)CC2)c1	8.8	-28.9	4.6	4.5	-0.5	-12.7	5916
COc1ccccc1CNS(=O)(=O)c1c(C)[nH]c(C)c1C(=O)N1CCCCC1	4.2	-8.2	1.6	11.7	1.0	-12.1	4795
CCCNC(=O)Nc1ccccc1SC	4.5	-5.4	3.4	13.4	5.3	1.2	2595
O=C1c2ccccc2-c2cccc(C(=O)N3CCCCC3)c21	9.5	-11.3	3.6	10.7	5.4	12.4	4295
COc1cc(C2C(C(=O)c3ccco3)=C(O)C(=O)N2CC2CCCO2)ccc1O (configuration not stated)	-4.3	-19.5	1.5	12.4	-0.8	-19.0	5078
CN(C)c1ccc(/C=N/n2ncc3ccccc32)cc1	nt	2.1	nt	nt	nt	-7.1	6075
COC(=O)c1ccc(NC(=O)CSc2n[nH]c(-c3ccncc3)n2)cc1	-4.5	-16.2	-1.1	nt	nt	-8.0	5365
CCOC(=O)Nc1ccc2c(c1)N(C(=O)C(C)N1CCCC1)c1ccccc1CC2 (configuration not stated)	2.2	-4.2	2.9	7.7	4.8	-4.1	7839
CCOC(=O)Cn1nnnc1C(C(C)C)N(Cc1cccs1)Cc1cc2cc(C)ccc2[nH]c1=O (configuration not stated)	-22.5	-29.6	4.7	11.9	3.7	0.0	10485
CCC(=O)N[C@@H]1CC(C(C)(C)NC(=O)CC)CC=C1C (some centres not stated)	4.7	-28.3	2.9	13.2	9.9	-9.6	6999
COC(=O)CSc1nc(NC#N)nc(NC(C)(C)C)n1	6.6	-14.5	3.1	4.8	-3.1	-6.9	4513
Cc1cccc(NC(=O)C2CCN(S(=O)(=O)c3ccc(Cl)cc3)CC2)n1	-2.6	-8.8	-2.6	-3.5	-0.5	7.5	?
COc1cc(OC)cc(C(=O)N2CCC(N3CCCCCC3)CC2)c1	5.6	-9.3	1.3	1.8	-6.6	-6.2	19182*
Cc1ccc(S(=O)(=O)N2Cc3ccccc3CC2C(=O)NC(C)(C)C)cc1 (configuration not stated)	-0.1	-12.6	3.2	-0.2	-1.0	-1.5	3294
CC1(C)CC(O)(CCNCc2ccc3c(c2)OCO3)CCO1 (configuration not stated)	-1.8	-8.8	1.8	3.8	3.9	-4.8	6193
